Arbovirus anti: blocks arbovirus infection | arbovirus infection cell-based antiviral screen | inhibition, % at 10 µM | actives 0.37% (n = 200,000) | AID 1251;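 active means inhibition from about 30%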;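 further: bluetongue infection of BSR cells; cell survival read as ATP light after 72 h; 0% = infected wells without compound and 100% = uninfected wells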
YopH inh: inhibitors of Yersinia enterocolitica YopH tyrosine phosphatase | fluorescence Ex485/Em525 | inhibition, %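 (about 10 µM by stock and volumes)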 | actives 0.16% (n = 140,000);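 active means inhibition of 50% or more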;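 further: controls were vehicle for no effect and minimum signal wells for full effect; inactives centre near -20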
Mtb bLac sens: beta-lactam sensitization of Mtb H37Rv. M. tuberculosis H37Rv growth with meropenem, percent inhibition; hits of this screen are not shown here. inhibition, % at 25 µM. actives 0.27% (n = 330,000);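 active means about 74% or more and at least 40 points above the plate without the antibiotic, then above 30% in a dose series; inconclusive means first-round hits that could not be retested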;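 further: growth measured after seven days incubation then overnight dye step; 0% = bacteria only wells and 100% = bacteria with antibiotic; twin plates without the antibiotic show which effects depend on it; some results filed as inactive read as strong as hits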
RecA splice inh: blocks M. tuberculosis RecA intein splicing | actives 0.75% (n = 290,000) | cell-free RecA intein splicing, fluorescence | P9WHJ3 | inhibition, %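 (about 9 µM by stock and volumes)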; in the data active means inhibition above about 30%; inconclusive means no clear call, values can overlap the other calls;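 further: 0% = vehicle wells and 100% = reference inhibitor control wells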
Target sequence (P9WHJ3 whole entry, looked up, canonical isoform): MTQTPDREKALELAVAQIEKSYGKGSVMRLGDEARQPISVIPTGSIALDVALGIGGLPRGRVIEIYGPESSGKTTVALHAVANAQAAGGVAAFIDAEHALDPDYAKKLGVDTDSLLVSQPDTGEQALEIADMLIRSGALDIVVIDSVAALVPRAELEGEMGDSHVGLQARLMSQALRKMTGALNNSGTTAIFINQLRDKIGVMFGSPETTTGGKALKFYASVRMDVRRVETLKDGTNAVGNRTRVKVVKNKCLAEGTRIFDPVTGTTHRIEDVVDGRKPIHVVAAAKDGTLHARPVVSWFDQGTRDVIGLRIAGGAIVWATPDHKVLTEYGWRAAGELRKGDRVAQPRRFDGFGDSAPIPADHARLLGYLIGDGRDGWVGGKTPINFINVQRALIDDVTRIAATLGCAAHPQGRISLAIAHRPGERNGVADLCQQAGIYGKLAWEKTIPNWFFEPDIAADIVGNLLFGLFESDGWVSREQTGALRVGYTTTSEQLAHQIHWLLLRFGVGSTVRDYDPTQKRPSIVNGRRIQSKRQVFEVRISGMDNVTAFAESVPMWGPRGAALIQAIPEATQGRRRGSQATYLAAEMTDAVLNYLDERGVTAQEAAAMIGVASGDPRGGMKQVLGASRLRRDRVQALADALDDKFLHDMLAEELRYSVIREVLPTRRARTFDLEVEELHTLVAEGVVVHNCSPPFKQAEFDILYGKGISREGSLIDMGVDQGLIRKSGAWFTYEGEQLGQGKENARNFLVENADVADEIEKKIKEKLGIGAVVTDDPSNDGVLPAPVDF
Mtb H37Rv: M. tuberculosis H37Rv growth inhibitors, H37Rv strain (AID 1626); M. tuberculosis H37Rv growth inhibition; higher % means a stronger effect; actives 0.95% (n = 220,000); inhibition, % at 10 µM; hits with a dose series show IC50 in µM;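 active means confirmed in a dose series; inconclusive means inhibition above 80% but not taken into the dose series; inactive means below 80% or under 30% at every dose of the series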;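 further: bacteria incubated seven days before Alamar blue readout; 0% = bacteria only wells and 100% = bacteria with antibiotic wells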
Arbovirus anti repeat: second read-out of Arbovirus anti, no call of its own (marks repeat the call); inhibition, %; measured here: 10K subset replicate screen; many hits read low in the repeat;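 first of two repeat runs on a subset; 0% = infected and 100% = uninfected wells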
The depositor's hits bear a star; ? = inconclusive; . = no result given. Not all compounds are listed, so the mix of outcomes need not match the whole.

SMILES | Arbovirus anti | YopH inh | Mtb bLac sens | RecA splice inh | Mtb H37Rv | others
CSc1cccc(NC(=O)CCCOc2ccc(Cl)cc2C)c1 | 21 | -3 | 4 | -3.1 | 27%
Cc1cccc(NC(=O)C2CCN(S(=O)(=O)c3c(C)nn(C)c3C)CC2)n1 | -6 | -30 | -5 | 2.1 | -6%
COCCOC(=O)c1c(NC(=O)COC(=O)Cc2cccc(OC)c2)sc(C(N)=O)c1C | . | . | -5 | 0.5 | .
CCN1CCN(S(=O)(=O)c2cc(OCC(=O)NC3CCCCC3)c(C)cc2Cl)CC1 | -1 | -17 | 6 | -5.3 | -6%
O=C(CSc1nccc(=O)[nH]1)Nc1ccc(F)c(Cl)c1 | 8 | -52 | -3 | 2.4 | 0%
CCc1cccc(C)c1NC(=O)CSc1nnc(-c2ccco2)n1N | 1 | -45 | 12 | -0.1 | -16%
COc1ccccc1C(=O)NC(CCSC)C(=O)OC(C)C(N)=O (stereo unspecified) | 0 | . | -8 | -3.3 | -1%
O=C(c1cccs1)N1CCN(C(=O)c2ccco2)c2ccccc2C1 | 4 | -28 | -9 | -3.1 | -2%
CCOC(OCC)P(=O)(c1ccccc1)c1ccccc1 | 1 | -27 | -5 | 0.4 | 2%
Cc1ccnc(Cc2ccccc2)n1 | . | . | 1 | -0.7 | .
NCCc1c[nH]c2ccc(F)cc12 | . | -36 | -6 | 0.7 | -11%
CCCCCCS(=O)Cc1ccccc1 (stereo unspecified) | 1 | 2 | -2 | 0.7 | 0%
NC(=O)CC(NC(=O)Cc1cccc2ccccc12)c1ccc(N2CCC(N3CCCCC3)CC2)c([N+](=O)[O-])c1 (stereo unspecified) | . | . | 0 | -1.6 | .
CCCC(=O)N/N=C1\CS(=O)(=O)N(C)c2ccsc21 | 3 | . | -3 | -1.2 | 4%
c1ccc(-c2nn[nH]n2)cc1 | . | . | -4 | . | -10%
O=[N+]([O-])c1ccc(N2CCCC2)cc1NCc1ccccc1 | 4 | -34 | -7 | 1.5 | 1%
NNC(=O)c1nc(-c2ccccc2)cc(-c2ccccc2)n1 | . | . | 0 | 0.0 | .
CS(=O)(=O)N(CC(=O)NCCSCc1ccccc1Cl)c1ccccc1F | . | . | -2 | -0.7 | .
N#C/C(=C\c1ccc(N2CCOCC2)o1)C(=O)NCC1CCCO1 (stereo unspecified) | 2 | . | -5 | -17 | 3%
O=C(c1ccc([N+](=O)[O-])s1)N1CCN(c2cccc(Cl)c2)CC1 | -36 | -15 | 99 | 4.8 | 9.2µM*

Random excerpt: six records from the list
SMILES | Arbovirus anti | YopH inh | Mtb bLac sens | RecA splice inh | Mtb H37Rv | others
CCCC(=O)N/N=C1\CS(=O)(=O)N(C)c2ccsc21 | 3 | . | -3 | -1.2 | 4%
CS(=O)(=O)N(CC(=O)NCCSCc1ccccc1Cl)c1ccccc1F | . | . | -2 | -0.7 | .
O=C(c1ccc([N+](=O)[O-])s1)N1CCN(c2cccc(Cl)c2)CC1 | -36 | -15 | 99 | 4.8 | 9.2µM*
NCCc1c[nH]c2ccc(F)cc12 | . | -36 | -6 | 0.7 | -11%
CCCCCCS(=O)Cc1ccccc1 (stereo unspecified) | 1 | 2 | -2 | 0.7 | 0%
N#C/C(=C\c1ccc(N2CCOCC2)o1)C(=O)NCC1CCCO1 (stereo unspecified) | 2 | . | -5 | -17 | 3%

The list continues.
SMILES | Arbovirus anti | YopH inh | Mtb bLac sens | RecA splice inh | Mtb H37Rv | others
Clc1ccc(-c2nc3ccccn3c2CN2CCSCC2)cc1 | 2 | . | 34 | 11 | 6%
O=C(Cc1ncc(C(F)(F)F)cc1Cl)NCc1cccnc1 | . | . | -8 | -3.5 | .
Cc1ccc2nc(NC(=O)COC(=O)c3ccc(Br)o3)sc2c1 | 12 | -36 | -12 | . | 5%
CC(C)(Cc1ccc(O)cc1)NC(=O)CC(=O)N/N=C/c1ccc([N+](=O)[O-])cc1 | -1 | . | 3 | -5.3 | 2%
CCCCNS(=O)(=O)c1ccc(OC)cc1 | 0 | -7 | -9 | 0.9 | -5%
O=c1c(C/C=C/c2ccccc2)c(O)ccn1Cc1cccc(Cl)c1 | 24 | . | -4 | . | 1%
COc1ccc(NC(=O)CN(C)CC(=O)Nc2cccc(C(C)=O)c2)cc1 | . | . | -2 | -0.7 | .
COc1ccc(C)cc1CN1C(=O)c2ccccc2C1=O | . | . | 2 | 3.8 | .
O=C(COc1ccc(S(=O)(=O)NC2CCCCC2)cc1)N1CCN(c2ccc(F)cc2)CC1 | -4 | -5 | 6 | . | 6% | Arbovirus anti repeat=1
C=CCOc1ccccc1/C=C/C(=O)O | 5 | -23 | -11 | -2.8 | -6%
COc1ccccc1N1CCN(CCN(C(=O)C2CCCCC2)c2ccccn2)CC1 | . | . | 1 | 2.5 | .
CCOC(=O)Cn1nnc(-c2cccc(OC)c2)n1 | -2 | -6 | 26 | 3.2 | 2%
Cc1ccc(-c2ccc(OC(=O)c3ccc(=O)[nH]c3)c(C)c2)cc1 | . | . | 27 | 8.1 | .
CC(C)N(Cc1nc(-c2ccccc2)no1)C(=O)CN1C(=O)c2ccccc2C1=O | -2 | -6 | -8 | 0.8 | -13%
COc1ccc(/C=N/NC(=O)c2ccn[nH]2)cc1CN1CCOCC1 | . | . | -5 | -1.8 | 3%
CN(C)C(=O)Oc1ccc2ccccc2c1Cl | 1 | 5 | -3 | 1.8 | 4%
COc1cc(NS(=O)(=O)c2ccc(F)cc2)c(OC)cc1NC(C)=O | 6 | -3 | -10 | -0.2 | 0%
O=C(C1=NN(c2ccccc2)C2C(=O)N(c3ccccc3Cl)C(=O)C12)c1ccccc1 (stereo unspecified) | -3 | -38 | -2 | -6.4 | -6%
CCC(C)[C@H](NC(=O)Nc1cccc(Br)c1)C(=O)OC (stereo partly specified) | 4 | -15 | -9 | 0.5 | 7%
N#CC1=C(N)Oc2c(ccc3cccnc23)C1c1cccnc1 (stereo unspecified) | -18 | -31 | -3 | -0.7 | .
COCc1cc(=O)[nH]c(/N=C(\N)Nc2ccccc2C)n1 | 2 | 8 | 4 | -3.9 | -10%
CCc1cccc(CC)c1-n1c(SCC(=O)N2CCc3ccccc3C2)nnc1-c1cccnc1 | 5 | -25 | -6 | 15 | 0%
CC(C)NC(=O)CN1C(=O)C(=O)c2ccccc21 | -3 | 9 | -6 | 1.3 | -7%
CC(NC(=O)c1cc(Br)ccc1Br)c1ccccc1 (stereo unspecified) | -7 | . | -11 | 0.0 | 1%
Cc1cccc(C)c1NC(=O)C(c1ccccc1)N1CCN(C(=O)c2ccco2)CC1 (stereo unspecified) | -7 | -29 | 4 | 3.1 | -4%
CN1CCN(c2nc(Nc3ccccc3)nc(N)c2[N+](=O)[O-])CC1 | . | . | -3 | 11 | 3%
CCCCN=Cc1c(O)n(-c2c(C)cc(C)cc2C)c(=O)[nH]c1=O | 16 | -5 | -51 | . | 2%
Cc1ccc(Cn2nnc3c(=O)n(CC(=O)OCc4ccccc4)cnc32)cc1 | 3 | -8 | 0 | -2.9 | -3%
COc1ccc(C(=O)/C=C/c2ccccc2)c(OC)c1 | -20 | . | -1 | 6.1 | 13%
Nc1ccccc1C(=O)Nc1cccc2ccccc12 | . | . | 8 | -1.1 | .
O=C(NCc1ccccc1)[C@]1(C(F)(F)F)C[C@H](CCc2ccccc2)CCCO1 | . | . | -5 | 7.6 | -10%
O=C(CNC(=O)c1ccco1)Nc1ccc2c(c1)OCCO2 | . | . | -1 | -1.1 | .
CN(CCC#N)C(=O)CSc1nc2scc(-c3ccccc3)c2c(=O)[nH]1 | 8 | -39 | 3 | -0.3 | -4%
COc1ccc(-c2n[nH]c(C)c2-c2ccc(OC)c(OC)c2)c(O)c1 | -17 | -23 | 9 | -0.9 | -7%
COc1ccc(S(=O)(=O)Nc2ccc3c(c2)OCO3)cc1C | -3 | -11 | 5 | 3.7 | -3%
Cc1cc(Nc2ccccc2)nc2cc(O)ccc12 | 9 | -6 | -1 | -11 | 42%
Nc1c(S(=O)(=O)c2cccc(Cl)c2)c2nc3ccccc3nc2n1/N=C/c1ccc(O)c(O)c1 | -33 | -27 | -10 | -1.1 | 2%
Cc1ccccc1-n1c(O)c(/C=N/NC(=O)c2ccccc2O)c(=O)[nH]c1=S | . | . | 59 | 9.3 | -4%
COc1cc(C(=O)Oc2cccc(C)c2)cc(OC)c1OC | -2 | -2 | 99 | 5.6 | 39%
CC(=O)NCCCC(=O)NC(CCC(=O)OCc1ccccc1)C(=O)OCc1ccccc1 (stereo unspecified) | 9 | . | -4 | -2.5 | -13%
COc1cc(/C=C2\NC(=S)NC2=O)ccc1OCc1cccc(C(=O)O)c1 | . | . | -2 | 0.8 | .
CC(=O)Nc1cc(NC(C)=O)cc(C(=O)OCC(=O)c2ccc3c(c2)OCO3)c1 | . | . | -4 | -2.2 | .
COc1ccc(-c2cccc(NS(=O)(=O)c3ccccc3[N+](=O)[O-])c2)nn1 | . | . | -14 | -0.4 | .
CCNc1nc(NC(C)C)nc(OCCOC(=O)Nc2ccccc2)n1 | -2 | -34 | 1 | 1.5 | 2%
CCC(=O)Nc1ccc2nc(SCC(=O)N3CCCC3)sc2c1 | 6 | 23 | ? | 0.7 | 16%
Cc1nn(-c2ncc(C(F)(F)F)cc2Cl)c(=O)n1-c1c(F)cccc1F | 4 | . | -3 | 1.6 | -1%
CCOc1ccc(OCc2ccc(C(=O)N3CCCC3)o2)cc1 | -1 | 1 | -4 | 1.9 | -4%
CC1CCCCC1NC(=O)/C(C#N)=C/c1ccc(OCC(N)=O)cc1 (stereo unspecified) | 3 | -22 | 51 | 1.9 | 1%
O=C(NCCO)c1ccc2nc(-c3ccco3)c(-c3ccco3)nc2c1 | 5 | -6 | 5 | 13 | 1%
Cc1ccc(S(=O)(=O)c2nc(-c3ccccc3Br)oc2N(C)C)cc1 | . | . | -2 | 5.6 | .

Next part.
SMILES | Arbovirus anti | YopH inh | Mtb bLac sens | RecA splice inh | Mtb H37Rv | others
Cc1cccc(NS(=O)(=O)c2ccc(-c3cnc(C4CC4)o3)cc2)c1C | . | . | -7 | 9.6 | .
COC(=O)Cn1ncn2c(cc3oc(C)cc32)c1=O | -1 | -12 | -11 | -1.2 | -8%
Cc1cc(C)n(-c2ccc(NC(=O)C3CCCCN3C(=O)c3occc3C)cc2)n1 (stereo unspecified) | . | . | 5 | 1.8 | .
Cc1cc(C)n2cc(CSCc3ccco3)nc2n1 | 6 | -2 | -1 | 0.4 | -8%
O=C(O)COc1ccccc1/C=N/NC(=O)CN1CCN(Cc2ccccc2Cl)CC1 | . | . | -3 | 0.2 | -10%
CC(C)(C)c1csc(NC(=O)c2ccc(Br)o2)n1 | . | . | 1 | 5.0 | .
COc1cccc(N2CCN(Cc3nc(N)nc(Nc4ccccc4)n3)CC2)c1 | -2 | -4 | 72 | -2.0 | 1%
Cc1ccc(/C=N/NC(=O)CNC(=O)c2cccs2)o1 | 0 | . | 3 | -0.5 | 2%
CNC(=S)NCc1ccc2[nH]c3c(c2c1)CCCC3 | -1 | . | 3 | -46 | 9%
CC1CC(C)CN(C(=O)CSc2ccsc2[N+](=O)[O-])C1 (stereo unspecified) | -2 | . | 6 | -0.3 | 4%
Cc1cccc(-n2ncc3c(NCc4cccs4)ncnc32)c1 | -12 | 6 | 22 | 1.0 | 16%
CC(=O)N1CCC(C(=O)Nc2ccc(S(=O)(=O)N3CCCCC3)cc2)CC1 | . | . | -3 | -0.4 | .
Cn1nnnc1P(=O)(c1ccccc1)c1ccccc1 | 7 | -49 | 0 | 0.1 | 10% | Arbovirus anti repeat=-1
O=C(NCCCNC(=O)c1ccc(Cl)cc1Cl)c1cnccn1 | . | . | -6 | 7.6 | .
COc1ccc2[nH]c3c(c2c1)CCNC3(C)CCc1ccc(Cl)nc1 (stereo unspecified) | . | . | -9 | 0.0 | .
C#CC(C)(C)NC(=O)c1ccc(-c2ccccc2F)cc1 | . | . | 6 | 1.4 | 9%
COc1cc(/C=C/C(=O)O)cc(S(=O)(=O)Nc2ccc3nc(SC)sc3c2)c1OC | 6 | . | -10 | 0.9 | -1%
COc1ccc(CNC(=O)c2ccc(-c3ccccc3)cc2)cc1 | 3 | -31 | 0 | 0.3 | 2%
CC12CCC(C(=O)N(CCCCN3CCN(c4ccccn4)CC3)C1=O)C2(C)C (stereo unspecified) | . | . | -2 | 2.6 | .
CC(C(=O)O)N1C(=O)C2C3CC(C2C1=O)C1C(c2ccccc2)c2sc(=O)[nH]c2SC31 (stereo unspecified) | 3 | -16 | -8 | -8.0 | 4%
COc1ccc(C)cc1-n1nnnc1SCC(=O)NNC(=O)c1ccc([N+](=O)[O-])cc1 | -2 | -20 | 10 | 1.6 | -7%
